Source: PubChem BioAssay (National Center for Advancing Translational Sciences (NCATS))
HSD17B inh = blocks hydroxysteroid 17-beta dehydrogenase activity. Q99714. recombinant HSD17B10, NADH fluorescence kinetic; many of its hits are not listed in these tables. Potency, µM (top dose mostly 57.1 µM), without a hit: at the highest dose activity change, negative = inhibition, hits mostly inhibitors. hit rate 7.6% among 75,000. AID 893; active = well fitted inhibition curve with a large enough effect; inconclusive = small, poorly fitted or top-dose-only effect; inactive = no such curve, though single readings can be large or run the other way;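 note: the protocol describes HADH2 (HSD17B10) and not the HSD17B4 of the title; nearly all actives have a fitted effect of over 70% in size; most hits overshoot -100% by far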
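His-tagged E. coli-expressed HADH2 at 20 nM in 100 mM Tris-HCl pH 9.0 with 0.01 % Tween-20, preincubated 15 min with compound at room temperature. Reaction with 1 mM NAD+ and 90 uM beta-hydroxybutyryl coenzyme A; NADH fluorescence (360/450 nm) read kinetically over 4 min, last minus first point.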
* marks the source's active call; other numbers are inactive results; ? = inconclusive; [ ] = dose if it differs, or a comment. % is set by controls: 0 for no effect and ±100 for the full control effect; potency is the fitted concentration of half-maximal effect. Some of the compounds tested; rates above refer to the full screens.

SMILES	HSD17B inh
CCOC(=O)C1CCCN(C(=O)c2ccc3c(c2)OCO3)C1 (stereo unspecified)	-11.8%
O=C(O)C1CCCCC1C(=O)NCCc1cccc(Cl)c1 (stereo unspecified)	5.0%
CC1=CC(C)C(C(=O)O)C(C(=O)O)C1 (stereo unspecified)	4.5%
CC1(C)CC(NS(=O)(=O)c2ccccc2)CC(C)(C)N1	16.3%
COc1ccccc1CNC(=O)C1CCCN(S(=O)(=O)c2cnc[nH]2)C1 (stereo unspecified)	9.2%
Cn1c(C(=O)NCc2ccc3c(c2)OCO3)cc2sccc21	-5.9%
Cn1c2ccccc2c2cnn(CC(=O)N3CCN(c4ncccn4)CC3)c(=O)c21	-1.0%
CC(C)CCN(C)C1CCN(S(=O)(=O)c2ccc(F)cc2)CC1	0.6%
COC(=O)C1C2C=CC3(CN(C4CCCC4)C(=O)C13)O2 (stereo unspecified)	7.8%
CCOC(=O)C1=C(C)N2C(=C(C#N)[C@@H]1c1ccc(C(=O)OC)cc1)SC[C@@]2(O)C(C)(C)C	31.6µM*
NN(CC(=O)O)CC(=O)O	3.3%[11.4 µM]
Clc1ccc(-c2nnc3sc(-c4ccco4)nn23)c(Cl)c1	2.9%
COc1cccc(N2CCN(C(=O)CN(C)S(=O)(=O)c3ccc4c(c3)CCC(=O)N4)CC2)c1	2.5%
CC(=O)c1cccc(N(CC(=O)N2CCOCC2)S(C)(=O)=O)c1	-1.4%
Cc1cc(NC(=O)CSc2nc(CCC3CCCC3)nc3ccccc23)no1	-8.8%
Cc1ccc(S(=O)(=O)C(F)(F)F)cc1NC(=O)c1cccnc1	-9.4%
O=C(Cc1cc(=O)[nH]c(=O)[nH]1)N1CCN(C(=O)c2ccco2)CC1	9.0%
CCc1ccc2c(c1)C(NC(C)=O)C(=O)N2CC (stereo unspecified)	-2.1%
COc1ccc(Oc2c(C)oc3c(CN(C)C)c(O)ccc3c2=O)cc1	31.6µM*
O=C(NCC1CCCO1)C1c2ccccc2C(=O)N1C1CCCCCCC1 (stereo unspecified)	3.2%
N#C/C(=C\c1ccc(O)c(O)c1)C(=O)NCCc1ccccc1	20µM*
COC(=O)c1ccc(C)c(NC(=O)c2nn(C)c(=O)c3ccccc23)c1	5.6%
Clc1ccc2c(NC3CCC(N4CCCCC4)CC3)ccnc2c1 (stereo unspecified)	-18.9%[11.4 µM]
N#Cc1ccsc1NC(=O)c1cnccn1	-1.7%
CO[C@H]1[C@H](O[C@H]2O[C@@H](C)[C@@H](O[C@@H]3C[C@](C)(O)[C@H](O)[C@H](C)O3)[C@@H](N(C)C)[C@@H]2O)[C@@H](CC=O)C[C@@H](C)[C@@H](O[C@H]2CC[C@H](N(C)C)[C@H](C)O2)/C=C\C=C/C[C@@H](C)OC(=O)C[C@H]1O	4.6%[25.6 µM]
More results
SMILES	HSD17B inh
N#CCCn1c(=O)c(-c2cc(F)cc(F)c2)nc2cnc(Oc3ccccc3)nc21	?
O=C1OC(c2ccccc2)=C/C1=C\N1CCOCC1	-8.5%
C=CCn1c(SCC(=O)Nc2nccs2)nnc1-c1cc2cccc(OC)c2o1	?
c1ccc(OCCCn2nnc(-c3cccnc3)n2)cc1	6.7%
CC(=O)C1=C(O)C(=O)N(CCN2CCOCC2)C1c1ccccc1 (stereo unspecified)	-5.2%
COc1ccc(C(C)=O)cc1CN1C(=O)C(C)N(c2ccc(C)cc2)C1=O (stereo unspecified)	6.8%
c1coc(Cn2c(SCc3nc4ccccc4[nH]3)nnc2-c2cccs2)c1	1.8%
CC1CCN(CC(C)OC(=O)c2ccc3c(c2)OCCO3)CC1 (stereo unspecified)	-16.0%
Clc1ccc(Cn2ncc3c(N4CCCC4)ncnc32)cc1	-3.6%
O=C(NCCN1CCOCC1)c1cccc(S(=O)(=O)N2CCCCCC2)c1	8.1%
O=c1ccn(C2OC(COP(=O)(O)OP(=O)(O)OP(=O)(O)O)C(O)C2O)c(=O)[nH]1 (stereo unspecified)	-0.4%
Cc1nc2ccccc2n1CC(=O)OCC(=O)Nc1ccc2c(c1)OCCO2	3.8%
CCOCCCNC(=O)C1CCCN1C(=O)NC1CCCCC1 (stereo unspecified)	-13.9%
O=C(Cn1cc(C(=O)c2cccs2)c2ccccc21)NCc1cccs1	?
CC(C)(C)C(=O)CNS(=O)(=O)c1ccc(S(=O)(=O)NC2CCCC2)cc1	-1.4%
COc1cccc(C2CC(c3ccccc3)n3ncnc3N2)c1 (stereo unspecified)	5.3%
O=S(=O)(NCCc1ccc2c(c1)OCCO2)c1cccs1	-9.1%
CC1CCN(C(=O)Cn2c(=O)n(Cc3ccc4c(c3)OCO4)c(=O)c3ccccc32)CC1	-3.0%
CCCCCCn1ccc(=N)cc1	-2.8%
COc1cccc(NS(=O)(=O)c2cn(C)c(=O)n(C)c2=O)c1	3.16µM*
CC(C)(O/N=C(\C(=O)N[C@@H]1C(=O)N2C(C(=O)[O-])=C(C[n+]3ccccc3)CS[C@@H]12)c1csc(N)n1)C(=O)O	-25.6%[25.6 µM]
Cc1ccc(OCCCn2c(CO)nc3ccccc32)cc1	-1.7%
CC(C)C(=O)N(Cc1ccc2c(c1)OCO2)Cc1ccccn1	-1.5%
CCCCC(CC)CNC(=O)c1cccs1 (stereo unspecified)	-3.2%
O=C1CC(N2CCN(c3ccccc3)CC2)C(=O)N1CCc1ccccc1 (stereo unspecified)	1.6%

Random excerpt: 3 entries already listed.
SMILES	HSD17B inh
CC1(C)CC(NS(=O)(=O)c2ccccc2)CC(C)(C)N1	16.3%
N#CCCn1c(=O)c(-c2cc(F)cc(F)c2)nc2cnc(Oc3ccccc3)nc21	?
O=C(NCCN1CCOCC1)c1cccc(S(=O)(=O)N2CCCCCC2)c1	8.1%

More entries follow.
SMILES	HSD17B inh
COc1ccc(COC(=O)N/N=C2/C[C@@H](O)[C@@H](O)[C@@H]3[C@@H]4C(=O)N(C[C@@H]5CCCO5)C(=O)[C@H]4CC[C@H]23)cc1	0.8%[11.4 µM]
CCOC(=O)c1c(C)[nH]c(C(=O)Cn2nnc(-c3ccccc3)n2)c1C	3.4%
CCNC(=O)/N=C1/NC(=O)C(C(C)C)O1 (stereo unspecified)	2.3%
Cc1noc(C)c1C(=O)N1CCC[C@@]2(CCN(c3cccc(-c4ccccc4)c3)C2)C1	-18.4%
Cc1ccc2c(c1)N[C@H](c1ccc(C(=O)O)cc1)c1cccn1-2	?
O=C(O)c1cccc(NC(=O)C2CC(=O)N(Cc3ccccc3)C2)c1 (stereo unspecified)	10.1%
OCCN(Cc1ccccc1)Cc1cccc(F)c1	6.0%
CC1CC(=O)Nc2ccccc2S1(=O)=O (stereo unspecified)	11.2%
COc1ccc(NC(=O)c2nnn(Cc3cccc(F)c3)c2N)c(OC)c1	?
COc1ccc(C2C(C(=O)c3sc(C)nc3C)=C(O)C(=O)N2CCN(C)C)cc1OC (stereo unspecified)	-7.9%
Cc1ccc2[nH]c(=O)c(-c3nc4cc(C)ccn4c3NCc3ccco3)cc2c1	0.4%
CCN(CC(=O)Nc1cccc(OC)c1)C(=O)C1CCN(C(=O)Nc2ccccc2)CC1	5.4%
CCn1c(SCC(=O)c2c[nH]c3ccccc23)nnc1-c1cccs1	-9.5%
CCCC(=O)NC(C)c1nc2ccccc2n1C (stereo unspecified)	1.5%
CN(C)c1ccc(CN(C(=O)C2COc3ccccc3O2)C2CCS(=O)(=O)C2)cc1 (stereo unspecified)	-4.6%
Cc1cc2c(nc1C)CCCN2C[C@H](C)O/N=C1/[C@H]2O[C@@H]2[C@@H](O)[C@H]2[C@H]1CCn1c(=O)n(-c3ccccc3)c(=O)n12	?
O=C(Nc1cc(C(F)(F)F)ccc1Cl)C1CCN(c2nnc(-n3cccc3)s2)CC1	-8.3%
CCOc1ccccc1C1C(C(=O)Nc2ccc(OC)cc2)=C(C)Nc2nc(CCCO)nn21 (stereo unspecified)	0.2%
COc1ccc(Cl)cc1C(=O)N(Cc1nc(-c2cccc(C)c2)no1)C(C)C	2.9%
COCCN(CCOC)Cc1cc(=O)oc2cc3c(cc12)CCC3	2.4%
COCCN1CC(=O)N(c2cccc(C)c2C)C(c2ccc(Cl)cc2)C1=O (stereo unspecified)	0.4%
COc1ccccc1NC(=O)C1=C(C)Nc2nnnn2C1c1ccccc1OC (stereo unspecified)	2.9%
CCOc1ccc(OCC)c(NC(=O)C2CCN(S(=O)(=O)c3cccc4nonc34)CC2)c1	-3.3%
Cc1cc(C(F)(F)F)nn1CC(=O)N1CCCCC1C (stereo unspecified)	12.8%
Cc1nc2nc(Cc3ccccc3)nn2c(C)c1Cl	5.3%
Later entries:
SMILES	HSD17B inh
O=C(C1CCCN(c2ncccn2)C1)N1CCc2ccccc21 (stereo unspecified)	?
COc1ccc(CC(=O)N2CCN=C2SC)cc1	5.0%
COC(=O)CC1NCCNC1=O (stereo unspecified)	13.4%
O=C(NC1CCS(=O)(=O)C1)c1cn(-c2ccccc2)nc1-c1ccccc1 (stereo unspecified)	6.6%
Cc1oc(C)c2c(=O)ccc3c(c12)OC(N)=C(C#N)C3c1ccc(F)cc1 (stereo unspecified)	?
COc1cccc(N=Cc2ccc(O)cc2O)c1	-8.0%
CC(=O)Oc1c(S(=O)(=O)c2ccc(C)cc2)c(C)nn1C(C)(C)C	-4.7%
Cn1c(=O)c(C(=O)NC2CCCCCCC2)c(O)c2ccccc21	-14.4%
CC1=C(C(=O)OC2CCCCC2)C(c2cccnc2)n2nnnc2N1 (stereo unspecified)	-10.2%
N#CNC(N)=Nc1cccc(Cl)c1	5.9%
COc1ccc(-c2noc(CN3CCOCC3)n2)cc1OC	?
CC1CN(C(=O)c2cc(F)c(F)cc2Cl)CC(C)O1 (stereo unspecified)	-2.8%
COc1ccc(C2C(C(=O)c3sc(C)nc3C)=C(O)C(=O)N2CCN2CCOCC2)cc1 (stereo unspecified)	8.3%
COc1ccc(CN(C(=O)CNC(=O)c2ccco2)C(C(=O)NC2CCCC2)c2ccco2)cc1 (stereo unspecified)	-4.1%
Cc1ccc2c(CC(=O)OCn3nnc4ccccc4c3=O)coc2c1	?
CC(C)c1nc2oc3c(NCC4CCCO4)ncnc3c2c2c1CCC2 (stereo unspecified)	31.6µM*
O=C(Nc1cccnc1)c1cc2c(ccc3ccccc32)o1	?
CCc1nnc(NC(=O)CSc2nnc(CNc3cccc(C)c3)n2-c2ccccc2)s1	-5.9%
COc1ccc(-c2noc(COc3ccc4c(c3)OCO4)n2)cc1	20.6%
COc1ccc2c(c1)cc1n2CCN2CCCN=C12	?
O=S(=O)(NCCSc1nnnn1-c1ccccc1)c1cccs1	2.1%
Cc1cc(=O)oc2cc(OCC(=O)OCC(=O)N3CCc4ccccc43)ccc12	479.0%[activator]
Cc1ccc(S(=O)(=O)Nc2ccc(S(=O)(=O)N3CCCC3)cc2)cc1	-4.7%
CCC1CCCCN1C(=O)COC(=O)c1ccc(S(=O)(=O)N2CCOCC2)cc1 (stereo unspecified)	0.4%
COc1cc(Cl)c(C)cc1NC(=O)CSc1nnc(-c2ccccn2)n1Cc1ccco1	-0.9%

In the list so far, these have an NH in an aromatic ring.
SMILES	HSD17B inh
COc1ccccc1CNC(=O)C1CCCN(S(=O)(=O)c2cnc[nH]2)C1 (stereo unspecified)	9.2%
O=C(Cc1cc(=O)[nH]c(=O)[nH]1)N1CCN(C(=O)c2ccco2)CC1	9.0%
c1coc(Cn2c(SCc3nc4ccccc4[nH]3)nnc2-c2cccs2)c1	1.8%
O=c1ccn(C2OC(COP(=O)(O)OP(=O)(O)OP(=O)(O)O)C(O)C2O)c(=O)[nH]1 (stereo unspecified)	-0.4%
CCOC(=O)c1c(C)[nH]c(C(=O)Cn2nnc(-c3ccccc3)n2)c1C	3.4%
Cc1ccc2[nH]c(=O)c(-c3nc4cc(C)ccn4c3NCc3ccco3)cc2c1	0.4%
CCn1c(SCC(=O)c2c[nH]c3ccccc23)nnc1-c1cccs1	-9.5%

(more compounds)
SMILES	HSD17B inh
CCn1c(CNC(=O)c2cccc(C)c2)nc2ccccc21	-0.8%
O=C(Nc1nc(-c2cccs2)cs1)c1ccc(S(=O)(=O)N2CCCC2)cc1	?
O=C(c1cccs1)N1CCN(Cc2ccc3c(c2)OCO3)CC1	-0.9%
CC1CCCCC1NC(=O)CCCc1nc2ccccc2c(=O)[nH]1 (stereo unspecified)	6.2%
COc1cccc([C@@H]2Oc3ccc(OC)cc3/C(=N/O[C@@H](C)CN3CCCc4nc(C)c(C)cc43)[C@@H]2O)c1	-15.9%[11.4 µM]
Cc1ccc(-c2noc(CSc3nnnn3-c3ccccc3)n2)cc1	-4.4%
CCCN1Cc2cccc(C(=O)Nc3cc(OC)cc(OC)c3)c2C1=O	28.6%
CCCCNC(=O)CS(=O)Cc1nc(-c2cccc(Cl)c2)oc1C (stereo unspecified)	-2.3%
O=C(NCc1cccs1)c1nc2c(nnn2Cc2ccc(F)cc2)c(=O)[nH]1	1.6%
NC(=O)C1(N2CCCCC2)CCN(C(=O)c2ccc(-n3cnnn3)cc2)CC1	0.3%
O=C(O)C1CC=CCC1C(=O)Nc1ccccc1Cl (stereo unspecified)	0.1%
CC(=O)c1ccc(Cc2cnc(N)s2)cc1	-8.8%
COc1ccccc1NC(=O)C1CCCN1C(=O)NCc1ccccc1 (stereo unspecified)	8.6%
CCCCn1cnc2c(c(CC#N)nn2-c2ccccc2)c1=N	4.8%[11.4 µM]
CCOC(=O)N1CCC(N(C(=O)Nc2ccc(CC)cc2)C(C)CC)CC1 (stereo unspecified)	6.1%
CCOC(NC(=O)c1ccccc1)C(NC(=O)c1ccccc1)OCC (stereo unspecified)	3.4%
O=C(CCc1nc2ccccc2s1)N1CCN(S(=O)(=O)c2cccs2)CC1	-12.9%
Cc1cc(C(=O)COc2nncc3ccccc23)c(C)n1C	-1.6%
COc1ccc2c(CC(=O)NCc3ccc4c(c3)OCO4)coc2c1	-21.5%
